StopGo reporter: FMDV 2A StopGo reporter, luciferase signal; hit rate 1.2% among 410,000; human cells with a luciferase reporter of 2A StopGo recoding; control for the full effect not named in the record; Potency, µM (titrated, usually from 57.9 µM), for inactives: at the highest dose signal change, negative = less light; active = well fitted falling curve with a large enough effect; inconclusive = small, poorly fitted or top-dose-only effect; inactive = no such curve, though single readings can be large or run the other way; tested in HEK293T cells; further: on the % scale 0 is the no-effect control and ±100 the full control effect; nearly all actives have a fitted effect of over 45% in size; luciferase light after 4 h
SARS PLP yeast: blocks SARS-CoV papain-like protease in a yeast assay | S. cerevisiae expressing SARS-CoV PLpro, growth rescue; control for the full effect not named in the record | Potency, µM (top dose mostly 32.9 µM), for inactives: at the highest dose activity, positive = growth rescue | hit rate 0.19% among 330,000; active means well fitted rising curve with a large enough effect; inconclusive means small, poorly fitted or top-dose-only effect; inactive means no such curve, though single readings can be large or run the other way; further: 0% is about no effect; nearly all actives have a fitted effect of over 55% in size; growth read by luminescence after 48 h
NS1 function inh: blocks influenza NS1 protein function. AID 2326. hit rate 0.4% among 270,000. Potency, µM (top dose mostly 46.1 µM), for the others: at the highest dose activity, positive = more growth. S. cerevisiae slowed by influenza A NS1, growth recovery by OD600; active means well fitted rising curve with a large enough effect; inconclusive means small, poorly fitted or top-dose-only effect; inactive means no such curve, though single readings can be large or run the other way; further: nearly all actives have a fitted effect of over 50% in size
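OD600 was taken as the measure of yeast growth restored by compound in an NS1-expressing S. cerevisiae strain. Cells had been washed out of glucose medium and diluted 1:100 into galactose -URA medium, pH 6.0.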
LASV entry inh: inhibitors of Lassa virus binding or cell entry. hit rate 1.2% among 300,000. Potency, µM (highest dose often 37.9 µM), for inactives: top-dose activity change, negative = inhibition, hits mostly inhibitors. AID 540256. Lassa virus pseudotype entry inhibition, cell reporter; control for the full effect not named in the record; active means well fitted inhibition curve with a large enough effect; inconclusive means small, poorly fitted or top-dose-only effect, or effect the other way; inactive means flat fitted curve, though single readings scatter; tested in HEK293 cells; further: on the % scale 0 is the no-effect control and ±100 the full control effect; nearly all actives have a fitted effect of over 50% in size; luciferase read-out
RE007 growth inh: less growth of the S. pombe RE007 Vpr strain; S. pombe RE007 Vpr strain, BacTiter-Glo ATP luminescence, 24 h; control for the full effect not named in the record; AID 651644; hit rate 0.21% among 360,000; Potency, µM (doses to about 92.2 µM), for the others: at the top dose activity change, negative = less growth; active = well fitted falling curve with a large enough effect; inconclusive = small, poorly fitted or top-dose-only effect; inactive = no such curve, though single readings can be large or run the other way;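 further: on the % scale 0 is the no-effect control and ±100 the full control effect; nearly all actives have a fitted effect of over 50% in size; the assay follows cell death caused by Vpr and the record does not say whether a fall means rescue or toxicity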
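Fission yeast RE007 carrying one integrated HIV-1 vpr copy, seeded at OD 0.01 in PMG+AL medium with 23 nL pinned compound. Grown 24 h at 30 degrees; viability read by BacTiter-Glo luminescence after 5 min.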
Cruzain inh noDet: inhibitors of Trypanosoma cruzi cruzain without detergent. P25779. purified cruzain, Z-FR-AMC fluorescence, no detergent. Potency, µM, without a hit: max response, negative = inhibition, hits mostly inhibitors. hit rate 2.3% among 200,000. AID 1476;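 further: plate controls were enzyme without inhibitor for no effect and buffer without enzyme for full effect; nearly all actives have a fitted effect of over 40% in size; top concentration of the series not given in the record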
Target sequence (P25779 123-467 limits assumed): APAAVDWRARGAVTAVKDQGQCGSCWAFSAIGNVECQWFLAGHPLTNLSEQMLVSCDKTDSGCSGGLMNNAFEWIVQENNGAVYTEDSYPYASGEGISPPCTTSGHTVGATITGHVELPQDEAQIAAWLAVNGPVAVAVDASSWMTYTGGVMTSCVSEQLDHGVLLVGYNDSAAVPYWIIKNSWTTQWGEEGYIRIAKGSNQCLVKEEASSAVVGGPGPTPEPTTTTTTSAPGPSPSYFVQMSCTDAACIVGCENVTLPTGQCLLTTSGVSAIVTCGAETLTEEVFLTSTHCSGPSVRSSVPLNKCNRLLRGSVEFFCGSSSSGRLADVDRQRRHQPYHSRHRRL
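Detergent-free condition (0.00005% Triton X-100) in acetate buffer pH 5.5 with DTT. 1.5 nM enzyme and compound were pre-mixed 15 min, then 2 uM Z-FR-AMC substrate added; reaction progress from fluorescence change between first and third reads (60 s).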
Cruzain inh Det: cruzain (T. cruzi) inhibition with detergent. Potency, µM, for the others: max response, negative = inhibition, usual class: inhibitors. AID 1478. purified cruzain, Z-FR-AMC fluorescence, 0.01% Triton. hit rate 0.43% among 200,000. P25779;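 further: plate controls were neutral wells for no effect and buffer without enzyme for full effect; nearly all actives have a fitted effect of over 40% in size; top concentration of the series not given in the record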
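Purified cruzain (1.5 nM final) was preincubated with compounds for 15 min at room temperature in 100 mM sodium acetate pH 5.5, 5 mM DTT, 0.01% Triton X-100. Reaction started with 2 uM Z-FR-AMC; AMC fluorescence change over 60 s gave activity.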
MARV entry inh: inhibitors of Marburg virus binding or cell entry | Marburg virus pseudotyped entry inhibition, cell reporter; control for the full effect not named in the record; about a third of the inactives were read at about 46 µM | Potency, µM (series often up to 37.8 µM), for inactives: top-dose activity change, negative = inhibition, usual class: inhibitors | hit rate 1.8% among 300,000 | AID 540276; active = well fitted inhibition curve with a large enough effect; inconclusive = small, poorly fitted or top-dose-only effect, or effect the other way; inactive = flat fitted curve, though single readings scatter; tested in HEK293 cells; about a fifth of its hits are not listed in these tables; further: on the % scale 0 is the no-effect control and ±100 the full control effect; luciferase read-out
An asterisk follows results filed as active; & = joins results of further samples; [ ] = remark or other dose. Unless noted, the call rests on the fitted dose curve; in most records, active means well fitted curve in the direction sought with a large enough effect; inconclusive means small, poorly fitted or top-dose-only effect, or another doubt; inactive means no such curve, though single readings can be large; an effect the other way counts as inactive or inconclusive. Potency means the concentration at half of the fitted maximal effect.

Cn1c(C(C(=O)NCC2CCCO2)N(C(=O)Cn2nnc3ccccc32)C2CCCCC2)nc2ccccc21 (stereo not drawn) was read as StopGo reporter 10%, SARS PLP yeast 3%, NS1 function inh -6%, LASV entry inh -17%, RE007 growth inh -5%, Cruzain inh noDet -3%, Cruzain inh Det -0.8% and MARV entry inh inconclusive.
`CC(C)C1=NN(C(=O)c2ccccc2)C(O)(C(C)(C)C)C1` (stereo not drawn) gave StopGo reporter -26%, SARS PLP yeast 0%, NS1 function inh -6%, LASV entry inh 12%, RE007 growth inh 5%, Cruzain inh noDet 3%, Cruzain inh Det 0.5% and MARV entry inh 23%.
`CCOC(=O)NC(NCc1cccc(C(F)(F)F)c1)(C(F)(F)F)C(F)(F)F` gave StopGo reporter -21%, SARS PLP yeast 24%, NS1 function inh -1%, LASV entry inh 2%, RE007 growth inh 12%, Cruzain inh noDet 4%, Cruzain inh Det -10% and MARV entry inh 3%.
Cc1ccc(Oc2nc(CN3CCOCC3)nc3sc4c(c23)CCC(C)C4)cc1 (stereo not drawn) was read as StopGo reporter -14%, SARS PLP yeast -54%, NS1 function inh -15%, LASV entry inh -4%, RE007 growth inh inconclusive, Cruzain inh noDet inconclusive, Cruzain inh Det -10% and MARV entry inh -10%.
`COc1ccc(N(CC(=O)Nc2cc(C)ccc2OC)S(=O)(=O)c2c(C)noc2C)cc1` gave StopGo reporter -29%, SARS PLP yeast 3%, NS1 function inh -4%, LASV entry inh inconclusive, RE007 growth inh inconclusive, Cruzain inh noDet 6%, Cruzain inh Det -2.2% and MARV entry inh 0%&-38%.
For CC(C)c1ccc(N2C(=O)N(Cc3cccc([N+](=O)[O-])c3)c3ccccc3S2(=O)=O)cc1 the results were StopGo reporter inconclusive, LASV entry inh 3%[46.1 µM], Cruzain inh noDet inconclusive and Cruzain inh Det -0.4%.
Screening CS(=O)(=O)c1ccc(-c2cccc(NC(=O)COc3ccccc3)c2)nn1 returned StopGo reporter -2%, SARS PLP yeast 3%, NS1 function inh 0%, LASV entry inh 5%[46.1 µM], RE007 growth inh -1% and MARV entry inh -21%[46.1 µM].
Screening Cn1c(=S)c2[nH]c(SCc3cccnc3)nc2n(C)c1=O returned StopGo reporter 0%, NS1 function inh 5%, LASV entry inh -2%, RE007 growth inh -7%, Cruzain inh noDet -6%, Cruzain inh Det -1.0% and MARV entry inh 11%&11%.
Screening Cn1c(N)c(C(=O)NCc2ccccc2)sc1=S returned StopGo reporter -10%, SARS PLP yeast 3%, NS1 function inh -69%, LASV entry inh -3%, RE007 growth inh -7%, Cruzain inh noDet -29%, Cruzain inh Det -3.4% and MARV entry inh inconclusive.
`O=C(Cn1c(=O)n(Cc2ccco2)c(=O)c2cccnc21)Nc1ccccc1F` gave StopGo reporter -22%, Cruzain inh noDet -9%, Cruzain inh Det -1.0% and MARV entry inh 14%[46.1 µM].
O=C1OC(c2ccc(Cl)cc2)=C/C1=C/c1cccnc1 was read as StopGo reporter 5%, SARS PLP yeast -1%, NS1 function inh 0%, LASV entry inh inconclusive, RE007 growth inh -9% and MARV entry inh 22%.
Screening COc1ccc2c(c1)n([O-])c1c([n+]2=O)CCC1 returned StopGo reporter -1%, SARS PLP yeast 1%, NS1 function inh 0% and RE007 growth inh 5%.
O=C(c1ccc(Br)cc1)N1CCCC(c2nc(-c3cccs3)no2)C1 (stereo not drawn) was read as StopGo reporter -3%, SARS PLP yeast -2%, NS1 function inh 0% and RE007 growth inh 6%.
CS(=O)(=O)N1CCN(C(=O)c2csc3ccccc23)CC1 was read as StopGo reporter -5%, SARS PLP yeast 6%, NS1 function inh 8%, LASV entry inh 0%, RE007 growth inh 5%, Cruzain inh noDet 1%, Cruzain inh Det 5.6% and MARV entry inh 5%.
For CCOC(=O)c1cc(-c2ccc(N3CCOCC3)cc2)nn1-c1ccccc1 the results were StopGo reporter inconclusive, SARS PLP yeast 22%, NS1 function inh -5%, LASV entry inh inconclusive, RE007 growth inh 5%, Cruzain inh noDet 11%, Cruzain inh Det -8.3% and MARV entry inh inconclusive.
`C/C(N)=C(/C#N)C(=O)CSc1nc2scc(-c3ccccc3)c2c(=O)n1C` gave StopGo reporter inconclusive, SARS PLP yeast -1%, LASV entry inh -22%, RE007 growth inh 1% and MARV entry inh -18%[46.1 µM].
Screening CCN(c1ccc(C)cc1C)S(=O)(=O)c1nnc(NC(=O)c2ccco2)s1 returned StopGo reporter 0%, SARS PLP yeast -13%, NS1 function inh -5% and RE007 growth inh 6%.
Screening O=C(O)/C(=C/c1cccnc1)NC(=O)c1ccccc1 returned StopGo reporter -12%, SARS PLP yeast 7%, NS1 function inh 6%, LASV entry inh 8%, RE007 growth inh 4%, Cruzain inh noDet 7%, Cruzain inh Det -2.7% and MARV entry inh -6%.
For CC(C)c1ccc(NC(=O)c2cccc(NC3=NC4CS(=O)(=O)CC4S3)c2)cc1 (stereo not drawn) the results were StopGo reporter 26%, SARS PLP yeast -4%, NS1 function inh 10% and RE007 growth inh 0%.
`CC12CCCc3c(O)cc(=O)n(c31)-c1ccccc12` (stereo not drawn) gave StopGo reporter -2%, SARS PLP yeast 1%, NS1 function inh inconclusive, LASV entry inh -13%, RE007 growth inh -4%, Cruzain inh noDet -22%, Cruzain inh Det -3.7% and MARV entry inh 36%.
For Cc1ccc(NC(=O)CCN2CCc3ccccc3C2)cc1 the results were StopGo reporter -23%, SARS PLP yeast 3%, NS1 function inh -12%, LASV entry inh 20%, RE007 growth inh 8%, Cruzain inh noDet -3%, Cruzain inh Det 0.6% and MARV entry inh -4%.
CCCS(=O)(=O)N1CCN(C(=O)c2cccc(OC)c2)CC1 was read as StopGo reporter 3%, SARS PLP yeast -4%, NS1 function inh inconclusive, LASV entry inh -3%, RE007 growth inh 5%, Cruzain inh noDet -4%, Cruzain inh Det -0.1% and MARV entry inh 0%.
For CN1CCN(S(=O)(=O)c2cccc(C(=O)Nc3sc4c(c3C(N)=O)CCCC4)c2)CC1 the results were StopGo reporter -7%, SARS PLP yeast -4%, NS1 function inh -12%, LASV entry inh 0%, RE007 growth inh 6%, Cruzain inh noDet 13µM*, Cruzain inh Det inconclusive and MARV entry inh inconclusive.
Screening COc1ccc(OCCn2c(C3CC(=O)N(c4ccc(F)cc4)C3)nc3ccccc32)cc1 (stereo not drawn) returned StopGo reporter 0%, LASV entry inh -28%[46.1 µM], Cruzain inh noDet -9%, Cruzain inh Det -13% and MARV entry inh 4%[46.1 µM].
For C=CCc1c(C)nc(-c2ccccc2)nc1Nc1ccc(O)cc1 the results were StopGo reporter inconclusive, SARS PLP yeast -2%, NS1 function inh -8%, LASV entry inh -15%, RE007 growth inh -6%, Cruzain inh noDet 20%, Cruzain inh Det -5.7% and MARV entry inh inconclusive.
For COc1ccc(CCn2c(N)c(C#N)c3nc4ccccc4nc32)cc1OC the results were StopGo reporter -23%, SARS PLP yeast -2%, NS1 function inh -9%, LASV entry inh -8%, RE007 growth inh -3%, Cruzain inh noDet 1%, Cruzain inh Det -11% and MARV entry inh -27%[46.1 µM].
Screening COc1ccc(Cl)cc1NC(=O)c1cc2c(s1)-c1ccccc1OC2 returned StopGo reporter -12%, Cruzain inh noDet -1%, Cruzain inh Det -2.6% and MARV entry inh 1%[46.1 µM].
For CCN(CC)CCNC(=O)c1cccc(NC(=O)C(=O)c2cc(Br)ccc2NC(C)=O)c1 the results were StopGo reporter -6%, SARS PLP yeast 1%, LASV entry inh 2%, RE007 growth inh 1% and MARV entry inh 14%.
Screening O=C1NC(c2ccc(Br)cc2)=N/C1=C/c1ccco1 returned StopGo reporter 39%[activator], SARS PLP yeast -5%, NS1 function inh 16%, LASV entry inh -16%, RE007 growth inh -6%, Cruzain inh noDet -3%, Cruzain inh Det -2.1% and MARV entry inh inconclusive.
Screening CC(C)(C)c1ccc(-n2ncc3c2CCCC3NC(=O)CN2CCCC2=O)cc1 (stereo not drawn) returned StopGo reporter inconclusive, SARS PLP yeast 0%, NS1 function inh -8%, LASV entry inh inconclusive, RE007 growth inh -3% and MARV entry inh 4%.
`CCCn1nnc(NC(=O)COc2ccccc2Cl)n1` gave StopGo reporter 59%[activator], SARS PLP yeast -4%, NS1 function inh -3%, LASV entry inh 8%, RE007 growth inh 3%, Cruzain inh noDet 23%, Cruzain inh Det -1.6% and MARV entry inh 28%.
CC(OC(=O)c1ccc(F)cc1)C(=O)Nc1nc(-c2cccc([N+](=O)[O-])c2)cs1 (stereo not drawn) was read as StopGo reporter inconclusive, SARS PLP yeast -20%, NS1 function inh -2%, LASV entry inh -3%, RE007 growth inh -6%, Cruzain inh noDet inconclusive, Cruzain inh Det -1.2% and MARV entry inh 11%.
O=C(NCc1cccnc1)C(=O)NCC1OCCN1S(=O)(=O)c1cc(F)ccc1F (stereo not drawn) was read as StopGo reporter 3%, SARS PLP yeast 3%, NS1 function inh -65%, LASV entry inh 10%[46.1 µM], RE007 growth inh -8% and MARV entry inh 4%[46.1 µM].
`COC(=O)Cn1c(-c2ccc(OC)cc2)c(-c2ccc(OC)cc2)nnc1=O` gave StopGo reporter -20%, SARS PLP yeast -2%, NS1 function inh -14% and RE007 growth inh 0%.

Molecules listed so far containing a cyano group (two):
`C/C(N)=C(/C#N)C(=O)CSc1nc2scc(-c3ccccc3)c2c(=O)n1C` gave StopGo reporter inconclusive, SARS PLP yeast -1%, LASV entry inh -22%, RE007 growth inh 1% and MARV entry inh -18%[46.1 µM].
For COc1ccc(CCn2c(N)c(C#N)c3nc4ccccc4nc32)cc1OC the results were StopGo reporter -23%, SARS PLP yeast -2%, NS1 function inh -9%, LASV entry inh -8%, RE007 growth inh -3%, Cruzain inh noDet 1%, Cruzain inh Det -11% and MARV entry inh -27%[46.1 µM].

Screening data (PubChem)
